# High-throughput results from PubChem.
# Rango release inh = prevents RanGTP from dissociating the Rango-importin beta complex; actives 0.071% (n = 340,000); Potency, µM (highest dose often 46.1 µM), for the others: top-dose activity change, negative = inhibition; Biochemical FRET Rango-importin beta, RanGTP-induced dissociation; active means falling FRET ratio curve, often poorly fitted, with flat reads before Ran was added; inconclusive means other falling curves, or compound fluorescence or quenching; inactive means flat or rising ratio curve;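 also: potency is read from the fitted curve at half-maximal effect; % of control where 0% means no effect; nearly all actives have a fitted effect of over 45% in size; -100% = wells without RanGTP and RCC1; the record marks most hits as doubtful in a second field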
#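 Rango FRET biosensor (snurportin-1 IBB flanked by N-terminal EYFP and C-terminal CFP10) at 0.1 uM, with 0.25 uM importin beta in PBS, 1mM DTT, 0.02% Tween-20, 0.1% BSA. 0.6 uM Ran, 2mM GTP and 0.2 uM RCC1 were then added for 45 min at room temperature. Inhibition read as loss of FRET rise.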
# Rango complex inh = inhibitors of Rango-importin beta complex formation | Q14974 | Rango CFP/YFP FRET sensor + importin beta, 45 min | Potency, µM (doses to about 92.2 µM), without a hit: at the top dose inhibition of complex formation | actives 0.031% (n = 340,000) | AID 540263; active = rising FRET ratio curve, often small or poorly fitted; inconclusive = mostly compound fluorescence or quenching in the first reads; inactive = flat curves in all reads;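 also: potency is read from the fitted curve at half-maximal effect; 0% = DMSO wells and 100% = buffer wells lacking importin beta; nearly all actives have a fitted effect of over 15% in size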
# Target sequence (Q14974 whole entry, looked up): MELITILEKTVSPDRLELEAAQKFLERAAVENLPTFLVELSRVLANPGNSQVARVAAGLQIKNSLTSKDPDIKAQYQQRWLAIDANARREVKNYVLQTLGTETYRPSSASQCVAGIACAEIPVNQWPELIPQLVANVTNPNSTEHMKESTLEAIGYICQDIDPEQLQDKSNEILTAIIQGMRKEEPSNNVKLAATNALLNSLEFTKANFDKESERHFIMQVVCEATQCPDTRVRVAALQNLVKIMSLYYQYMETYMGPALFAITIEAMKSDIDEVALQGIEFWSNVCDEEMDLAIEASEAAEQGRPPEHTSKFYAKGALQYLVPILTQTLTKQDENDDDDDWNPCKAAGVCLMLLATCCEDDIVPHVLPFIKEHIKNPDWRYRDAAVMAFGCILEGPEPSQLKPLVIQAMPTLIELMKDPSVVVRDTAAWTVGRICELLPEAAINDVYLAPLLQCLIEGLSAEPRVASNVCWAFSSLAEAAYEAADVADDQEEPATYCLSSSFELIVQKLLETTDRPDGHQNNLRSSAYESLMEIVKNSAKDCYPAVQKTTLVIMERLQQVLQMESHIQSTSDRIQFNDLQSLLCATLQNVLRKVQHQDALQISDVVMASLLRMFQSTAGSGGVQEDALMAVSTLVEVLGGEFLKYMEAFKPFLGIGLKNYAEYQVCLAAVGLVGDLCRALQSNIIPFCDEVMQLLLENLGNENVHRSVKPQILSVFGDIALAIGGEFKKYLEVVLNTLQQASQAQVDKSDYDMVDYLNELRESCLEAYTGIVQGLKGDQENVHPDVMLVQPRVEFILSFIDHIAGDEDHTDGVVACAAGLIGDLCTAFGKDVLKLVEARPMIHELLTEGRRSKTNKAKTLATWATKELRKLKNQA
#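 Inhibition scored from the CFP 486 nm/YFP 530 nm FRET ratio 45 min after adding 0.125 microM importin beta to 50 nM Rango biosensor preincubated 5 min with compound (room temperature, PBS with DTT, Tween-20, BSA). No-importin wells as positive control.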
# GLA inh pH 4.5 = inhibitors of human alpha-galactosidase A at pH 4.5; activity change, negative = inhibition, % at 105 µM; 230,000 tested, under 10 active; P06280; purified enzyme, 4-MU-alpha-Gal fluorescence, pH 4.5; inconclusive = small, poorly fitted or top-dose-only inhibition, or a rising curve; inactive = flat fitted curve, though single readings scatter; no compound was filed as active;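 also: 0% = full activity with enzyme and -100% = basal without enzyme; dose as in the result columns while the protocol names 77 µM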
# miR-21 FLuc = raises the signal of a miR-21 reporter; 340,000 tested, under 10 active; HeLa miR-21 FLuc reporter, luciferase, 48 h; Potency, µM (titrated, usually from 38.3 µM), inactives show at the highest dose reporter change, positive = more light; active = well fitted rising curve with a large enough effect; inconclusive = small, poorly fitted or top-dose-only effect; inactive = no such curve, though single readings can be large or run the other way;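 also: % of control where 0% means no effect; miR-21 action dims this reporter so a rising signal means less miR-21 action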
#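 HeLa miR-21-FLuc reporter line, endogenous miR-21; 2000 cells/well in DMEM/10% FBS; compound titration up to ~40uM final, 48 h, 37 degree Celsius; luciferase detection reagent, 15 min lysis, CCD luminescence.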
# Starred values were filed as active, the others as inactive; ? = inconclusive; . = not tested or not shown; & = joins results of further samples; [ ] = another dose, or the depositor's remark. Only part of the results is shown (hit frequency here may not be typical).
SMILES,Rango release inh,Rango complex inh,GLA inh pH 4.5,miR-21 FLuc
CCOP(=O)(OCC)C(NC(=O)/C=C/c1ccc(OC)cc1)c1ccccc1 (stereo not given),-7%,1.1%,-4,-1%
O=[N+]([O-])c1cccc(/C=C/c2ccncc2)c1,-9%,-0.1%,-1,-28%
Cc1cc(Nc2ccccc2)nc(N2CCOCC2)n1,0%,-3.1%,4,-17%
O=C(COC(=O)c1cc(-c2ccccn2)nc2ccccc12)Nc1ncc(C(F)(F)F)cc1Cl,-24%,0.1%,8,0%
COc1ccccc1C(=O)NCCC(=O)N(C)CC(=O)Nc1ccc(C)cc1,-9%,-0.4%,.,.
CC(C)COc1ccc(/C(=N/O)c2ccccc2)cc1,1%,0.7%,-5,-38%
Cc1cc(C(=O)COC(=O)C2=NNC(=O)CC2)c(C)n1-c1cccc(C(F)(F)F)c1,-12%,3.4%,5,0%
CC(=O)Nc1ccc(S(=O)(=O)N2CCC(C(=O)Nc3nccs3)CC2)cc1,1%,-1.0%,.,2%
COc1ccc(S(=O)(=O)Nc2cccc(F)c2)cc1C,-17%,1.5%,-1,-1%
CN1CCN(c2cc(-c3cc(O)c4ncccc4c3)ccn2)CC1,13%,3.7%,.,.
CCN(C(=O)COC(=O)c1cccc(S(=O)(=O)N(CC)CC)c1)C1CCS(=O)(=O)C1 (stereo not given),5%,-0.3%,.,-6%
O=C1C=C(Nc2ccc(Cl)cc2)CC(c2ccco2)C1 (stereo not given),-2%,-0.5%,4,15%
COc1ccc(C=O)cc1CSc1nnc(COc2cccc3cccnc23)o1,2%,-0.8%,3,-11%
COc1ccc(CN2CC[C@H]3C=CC[C@@H](C(=O)N4CCOCC4)[C@H]3C2=O)cc1OC,-1%,0.4%,.,.
O=C(Nc1ccnn1C1CCN(Cc2ccc(F)cc2)CC1)C1CC1,-25%,7.0%,.,-3%
COc1ccc2nc(CNC(=O)C3CCC(=O)N(CCc4ccccc4)C3)[nH]c2c1 (stereo not given),-11%,?,.,-4%
O=C(NCC1OCCc2ccccc21)c1ccc(NC(=O)c2ccc(Cl)cc2Cl)cc1 (stereo not given),-5%,-3.9%,-1,0%
CCn1c(CNC(=O)c2ccccc2F)nnc1SCC(=O)NC1CCCCC1,-7%,-0.2%,0,-1%
NNC(=O)c1snnc1-c1ccccc1,-12%,2.6%,-5,-5%
CC(C)c1ccc(NC(=O)C[n+]2ccn(C3=C([O-])c4ccccc4C3=O)c2)cc1,-8%,1.3%,4,-1%
O=S(=O)(/C=C/c1ccccc1)NC1CCCCCC1,-1%,0.0%,5,-10%
COc1ccc(N2CC(O)=C(c3nc(-c4ccc(F)cc4)cs3)C2=N)cc1Cl,?,-1.6%,-13,-1%
CC(C)c1nc(SCC(=O)Nc2nccs2)c2ccccc2n1,-8%,1.2%,.,-1%
O=C1C(=O)N(CCCn2ccnc2)C(c2ccc(Br)cc2)/C1=C(\O)c1ccc2c(c1)OCCO2 (stereo not given),1%,0.4%,.,1%
Cc1ccc(SCCNC(=O)/C=C/c2ccc(Cl)cc2)cc1,0%,1.4%,-5,-4%
SMILES,Rango release inh,Rango complex inh,GLA inh pH 4.5,miR-21 FLuc
Cc1[nH]c2ccccc2c1C(=O)C(=O)N1CC=C(c2ccccc2)CC1,12%,-1.7%,0,11%
COC(=O)c1sc(NC(=O)C2c3ccccc3Oc3ccccc32)c(C(=O)OC)c1C,0%,-0.7%,0,2%
Cc1c(CN2CCC(n3nccc3NC(=O)C3CC3)CC2)[nH]c2ccccc12,-11%,3.4%,.,1%
CCN(C(=O)N1CCOCC1)c1ccccc1C,-4%,-2.3%,.,0%
O=C1CCCN1CCC1CCN(C(=O)Nc2ccccc2)CC1,7%,-1.6%,15,-3%
CCCCC[C@@H]1C=C(C(=O)O)[C@H](c2ccc(Cl)c(Cl)c2)N1S(=O)(=O)c1ccc(C)cc1,3%,-1.1%,.,.
CCCCNC(=O)C(=O)NCc1ccncc1,7%,-0.1%,-5,1%
O=C(CC1S/C(=N/N=C/c2cccs2)NC1=O)Nc1ccc(Cl)c(Cl)c1 (stereo not given),-9%,1.4%,-3,2%
COc1ccc(CNC(=O)N2CCN(c3cccc(Cl)c3)CC2)cc1OC,-10%,0.4%,.,11%
CCn1ccnc1CNC(=O)C1CCC(=O)N(Cc2ccccc2F)C1 (stereo not given),1%,0.7%,.,3%
COc1cc(-c2nc3ccc4ccccc4c3c3c2CCC3)cc(OC)c1O,1%,1.9%,-3,-16%
C=CCN1C(=O)c2ccc(C(=O)N(C)CC(=O)Nc3ccccc3Cl)cc2C1=O,-14%,?,.,.
CCOC(=O)C1CCN(C(=O)c2ccccc2NS(=O)(=O)c2ccc(F)cc2)CC1,12%,6.6%,3,-9%
NS(=O)(=O)c1ccc(CCNC(=O)CNCCc2ccc(C(F)(F)F)cc2)cc1,11%,3.5%,.,11%
O=C(NCCS(=O)(=O)NC1CCCC1)c1ccc(F)cc1,-7%,2.7%,.,.
N#CC(C#N)=C1C=CC=CN1/C(=C\c1ccco1)C(=O)c1ccc(Br)cc1,-14%,?,-7,?
Cc1ccc(NC(=O)C/C(N)=N/OC(=O)Nc2ccc(C)c(Cl)c2)cc1,9%,0.0%,.,.
CCOc1ccc(NC(=S)NNc2ccnc3cc(Cl)ccc23)cc1,-4%,-2.8%,-21,-3%
COc1cccc(-n2cc(CNCc3c(C(=O)N(C)C)nc4ccc(Cl)cn34)cn2)c1,1%,-1.7%,-5,1%
C[C@@H]1C[C@@H]2OC(=O)[C@]3(C)[C@H]2[C@@H](OC3(C)O)[C@]2(C)C(=O)C=C[C@H]12 (stereo not given in full),31%,-0.2%,4,?
COc1cc(C)c(CN2CCSCC2)cc1C,13%,4.0%,.,-1%
COc1cccc(CNC(=O)CCn2c(=O)c3cccn3c3cccnc32)c1,-12%,?,.,-4%&-4%
CCCCCCCCCCn1ccc(=N)cc1,4%,4.5%,-9,?
O=C(Cn1cnc2c(cnn2-c2ccccc2)c1=O)Nc1cc(S(=O)(=O)N2CCOCC2)ccc1Cl,-7%,-0.4%,-7,0%
COc1ccccc1-c1nn(-c2ccccc2)cc1C(=O)N1CCN(C(=O)c2ccco2)CC1,3%,4.5%,.,.
SMILES,Rango release inh,Rango complex inh,GLA inh pH 4.5,miR-21 FLuc
Cc1ccc(S(=O)(=O)CCC(=O)Nc2cccc([N+](=O)[O-])c2)cc1,5%,0.1%,-8[21.1 µM],2%
Cc1ccc(C)c(N2CCN(C(=O)c3csc4ccccc34)CC2)c1,11%,3.9%,-4,-1%
C/C(CC(=O)Nc1cccc2c1CCCC2)=N\NC(=O)c1cccc2ccccc12,3%,-3.7%,-3,-4%
Cc1ccc(NC2=NC(c3ccc(F)cc3)n3c(nc(C)cc3=O)N2)cc1 (stereo not given),3%,5.2%,5,7%
O=C(CSc1ncnc2c1cnn2-c1ccccc1)Nc1ccc2c(c1)OCO2,3%,-1.9%,2,12%
O=C1c2ccccc2C(=O)N1Cc1cc(-c2ccccc2Cl)no1,0%,1.3%,3,-3%
CCN(CC)S(=O)(=O)c1c(OC)cc(C)c(Cl)c1C,0%,3.0%,0,-5%
COc1ccc(NC(=O)c2csc3c2CCCC3)cc1,0%,-1.7%,6,-49%
O=C(N1CCCCC1)N1CCN(S(=O)(=O)c2ccc(Cl)cc2)CC1,6%,?,2,5%
Cc1ccc(Cl)cc1NC(=O)C1CCCN(c2cnccn2)C1 (stereo not given),8%,-1.3%,.,-4%&16%
Cc1ccc(C(=O)CC(C(=O)O)n2ccc(C)n2)cc1 (stereo not given),-3%,-4.8%,-10,-1%
COc1ccc(C)cc1NS(=O)(=O)c1ccc2c(c1)CCN2C(C)=O,4%,-0.7%,.,21%
Cc1nn(-c2ccccc2)c(N2CCCC2)c1/C=N/NC(=S)Nc1ccc(F)cc1,21%,-2.0%,.,.
COc1ccc(S(=O)(=O)Nc2ccccc2C)cc1,-4%,-0.2%,6,21%
Cc1cc(OCC(=O)O)c2cccc(C)c2n1,4%,-0.5%,4,3%
COc1nnc(-c2ccccc2)s1,24%,6.7%,0,-16%
CSCCC(N=C(NS(=O)(=O)c1ccccc1)c1ccccc1)C(=O)O (stereo not given),7%,0.6%,-5,5%
CCC[n+]1c2ccccc2cc2ccccc21,?,?,.,?
CCCNC(=O)c1cc(-c2ccc3c(c2)OCO3)on1,9%,0.0%,.,-13%
CCOc1ccc(NC(=O)CN2CCc3cc4c(cc3C2)OCCCO4)cc1OCC,-1%,-9.7%,.,4%
Cc1ccc(C)c(NC(=O)CCN2CCN(c3ccccc3F)CC2)c1,-6%,1.9%,.,-7%
Cc1[nH]nc2c1C(c1ccc(O)cc1)C1=C(CC(C)(C)CC1=O)N2 (stereo not given),?,-3.3%,10,9%
CN1CCN(S(=O)(=O)c2cccc(C(=O)Nc3sc4c(c3-c3nc5ccccc5[nH]3)CCCC4)c2)CC1,-11%,?,-1,-18%
COc1cc(NC(=S)N2CCC(C(N)=O)CC2)c(OC)cc1Cl,5%,-1.6%,2,-2%
O=C(O)c1ccc(NC(=O)c2cccc(C(=O)Nc3ccc(C(=O)O)cc3)c2)cc1,4%,4.0%,.,-2%

# Only Rango release inh and miR-21 FLuc, for two of the compounds above:
compound	Rango release inh	miR-21 FLuc
Cc1cc(OCC(=O)O)c2cccc(C)c2n1	4%	3%
COc1nnc(-c2ccccc2)s1	24%	-16%

# The main list resumes, repeating the 6 entries before the break.
SMILES,Rango release inh,Rango complex inh,GLA inh pH 4.5,miR-21 FLuc
CCOc1ccc(NC(=O)CN2CCc3cc4c(cc3C2)OCCCO4)cc1OCC,-1%,-9.7%,.,4%
Cc1ccc(C)c(NC(=O)CCN2CCN(c3ccccc3F)CC2)c1,-6%,1.9%,.,-7%
Cc1[nH]nc2c1C(c1ccc(O)cc1)C1=C(CC(C)(C)CC1=O)N2 (stereo not given),?,-3.3%,10,9%
CN1CCN(S(=O)(=O)c2cccc(C(=O)Nc3sc4c(c3-c3nc5ccccc5[nH]3)CCCC4)c2)CC1,-11%,?,-1,-18%
COc1cc(NC(=S)N2CCC(C(N)=O)CC2)c(OC)cc1Cl,5%,-1.6%,2,-2%
O=C(O)c1ccc(NC(=O)c2cccc(C(=O)Nc3ccc(C(=O)O)cc3)c2)cc1,4%,4.0%,.,-2%
Nc1nc(N2CCN(c3ccc(Cl)cc3)CC2)n[nH]1,-10%,0.0%,-15,-3%
O=S1(=O)CCC(NC(=S)N2CCOCC2)C1 (stereo not given),7%,-2.6%,7,-5%
CCOc1ccc(S(=O)(=O)n2nnc3ccccc32)cc1C,9%,0.0%,1,-6%
CCOC(=O)c1ccc(S(=O)(=O)NC2CC2)cc1,0%,-7.9%,.,-4%
CCCCCCCN1C2=NCCN2c2ccccc21,0%,-1.9%,-5,?
CN(C)S(=O)(=O)c1cccc(C(=O)NC2CCSc3ccccc32)c1 (stereo not given),-18%,-2.0%,.,3%
C/C(=N\NC(=O)Cc1ccc(F)cc1)c1ccc(F)cc1,0%,-0.4%,-4,?
CCOc1ccc2[nH]c(=O)c(CN(C(=O)N3CCOCC3)C3CC3)cc2c1,.,.,6,-4%
COc1ccc(-c2[nH]ncc2CN(C)CCCN2CCOCC2)cc1F,-7%,-0.6%,-7,-5%
CCc1cc(Br)ccc1NC(=O)C1CCCO1 (stereo not given),1%,5.3%,0,-9%
O=C(Nc1ccc(Cl)c(Cl)c1)Nc1cc(S(=O)(=O)N2CCOCC2)ccc1N1CCCC1,34%,0.0%,-1,?
Cc1ccc(NCCCCO)cc1C,-8%,-3.2%,-2,-9%
COc1ccc(C2CCCN2C(=S)Nc2c(C)cccc2C)cc1OC (stereo not given),-15%,-5.0%,-2,4%
Cc1ccc(C)c(C(C)NC(=O)C2CC=CCC2C(=O)O)c1 (stereo not given),?,0.5%,.,.
CC1CCCCN1C(=O)CCS(=O)(=O)c1cccc2nonc12 (stereo not given),0%,1.1%,-2,-14%
COc1cc(/C=C/C(=O)Oc2coc(CSc3ncccn3)cc2=O)cc(OC)c1OC,8%,1.9%,12,1%
N=C(N)SCc1cn2ccccc2n1,2%,7.2%,4,-1%
CSc1nsc(N/N=C/c2ccc3c(c2)OCO3)c1C#N,?,?,-28,-62%
